Screening results (PubChem BioAssay)
HSV augment = increases HSV replication in cells | 220,000 compounds, 0.005% hits | maximum fold increase | HSV replication augmentation in cells, fold increase;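 active = peak rise of 1.5-fold or more in the series; tested in PC3 cells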;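 also: first round at 10 µM; read as green reporter fluorescence; hits show the peak of a series up to 25 µM; 1 = signal of infected wells without compound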
PKD1 kinase inh = PKD1 (human) kinase inhibition; 200,000 compounds, 0.056% hits; Q15139; inhibition, %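 (about 10 µM by stock and volumes)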; PKD1 kinase fluorescence polarization assay;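 active = inhibition of 50% or more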;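 also: controls were vehicle for no effect and a reference inhibitor for full effect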
GALR2 agonist = agonists of human galanin receptor 2 (GALR2); 140,000 compounds, 0.48% hits; activation, %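 (tested at 5 µM)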; O43603; GALR2-expressing cells, agonist activation read-out;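 active = above mean plus 3 SD of all compounds, about 5% in these data, not always enough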;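 also: 0% = vehicle buffer wells and 100% = reference agonist at full effect; tested in CHO reporter cells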
Target sequence (O43603 whole entry, looked up): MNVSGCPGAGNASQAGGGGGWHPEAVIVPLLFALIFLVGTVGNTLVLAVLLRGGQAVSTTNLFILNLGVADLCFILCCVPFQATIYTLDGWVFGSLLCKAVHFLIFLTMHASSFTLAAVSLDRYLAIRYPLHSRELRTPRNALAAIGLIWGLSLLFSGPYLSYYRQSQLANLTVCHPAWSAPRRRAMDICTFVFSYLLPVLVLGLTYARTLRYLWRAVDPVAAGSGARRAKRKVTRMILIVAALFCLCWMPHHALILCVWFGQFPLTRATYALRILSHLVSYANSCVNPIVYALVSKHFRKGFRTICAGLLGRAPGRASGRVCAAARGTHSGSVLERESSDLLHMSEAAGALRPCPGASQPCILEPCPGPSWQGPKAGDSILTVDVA
RGS16-Gao HTS = modulates binding between human RGS16 and Galphao; 220,000 compounds, 0.38% hits; O15492+P09471; bead-based flow cytometry RGS16-Galphao binding, fluorescence; actives lie on both sides; binding response (% of control), % at 10 µM;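 active = below 25% or above 175%, edge rows of some plates excepted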;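 also: Galphao activated by GDP with aluminum fluoride before binding; 100% = wells without compound and 0% = beads without RGS; some results beyond the cut were filed as inactive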
Target sequence (O15492 whole entry, looked up): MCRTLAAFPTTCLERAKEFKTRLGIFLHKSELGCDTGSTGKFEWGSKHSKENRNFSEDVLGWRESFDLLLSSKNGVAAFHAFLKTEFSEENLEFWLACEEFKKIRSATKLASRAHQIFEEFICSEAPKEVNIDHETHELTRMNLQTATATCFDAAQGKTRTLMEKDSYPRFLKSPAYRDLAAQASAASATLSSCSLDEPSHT
Target sequence (P09471 whole entry, looked up): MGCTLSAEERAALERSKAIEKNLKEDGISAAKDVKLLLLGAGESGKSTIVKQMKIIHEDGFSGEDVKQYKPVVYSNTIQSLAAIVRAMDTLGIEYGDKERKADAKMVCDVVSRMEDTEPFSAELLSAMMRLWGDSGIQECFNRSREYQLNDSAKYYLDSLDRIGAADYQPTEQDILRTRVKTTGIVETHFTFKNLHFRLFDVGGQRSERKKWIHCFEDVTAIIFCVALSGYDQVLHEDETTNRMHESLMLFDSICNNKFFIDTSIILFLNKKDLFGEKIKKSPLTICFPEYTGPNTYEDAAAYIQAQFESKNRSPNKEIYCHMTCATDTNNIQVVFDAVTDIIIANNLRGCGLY
Insulin prom inh = TRM-6 insulin promoter activity inhibition; inhibition, % at 2 µM; AID 1273; TRM-6 cells (human fetal islet line), insulin promoter-eGFP reporter, imaging; reporter expression induced with tamoxifen; 130,000 compounds, 0.9% hits;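 active = inhibition above the mean plus 3 SD, with well images judged a real hit on visual review, cut at about 60% in these data, passing the limit was not always enough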
Insulin prom inh cell count = also measured in Insulin prom inh; calls as there; normalized cell count, %; measured here: cell count, toxicity; reference of the scale not given here;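 cells exposed to compound for 48 h; stained nuclei by imaging scaled within each plate; lower means fewer cells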
HSV augment primary fold = further read-out of HSV augment, marked with its call; fold increase; compound at 10 µM; measured here: primary screen fold increase 10 uM; tested in PC3 cells;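 GFP signal in the first replicate; 1 = infected wells without compound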
Starred values were filed as active, the others as inactive; i = inactive; . = not tested or not shown.

SMILES	HSV augment	HSV augment primary fold	PKD1 kinase inh	GALR2 agonist	RGS16-Gao HTS	Insulin prom inh	Insulin prom inh cell count
COc1ccc(OCCSc2nc(-c3ccccc3)cc(=O)[nH]2)cc1	i	0.94	-4	.	101	.	.
COc1cccc(-n2c(C)cc(/C=C3/C(=N)N4C(=NC3=O)SN=C4S(C)(=O)=O)c2C)c1	i	1.1	-3	.	100	50	124
COc1ccccc1NC(=O)CSc1nnc2ccc(-c3cccnc3)nn12	i	0.97	0	.	97	.	.
O=C(CSc1ccc(C(F)(F)F)cc1[N+](=O)[O-])NCCOc1ccccc1	i	1.1	-7	-1.8	107	.	.
Cc1[nH]c2ccccc2c1C1(O)C(=O)N(C(C)C)c2ccccc21 (stereo unspecified)	i	0.92	-2	-2.1	91	33	30
CCOc1cc(CNc2ccc(CNc3ncn[nH]3)cc2)ccc1OCc1ccccc1	i	0.91	-7	-1.4	124	.	.
Cc1cc(C)n2cc(CSc3nnnn3C)nc2n1	i	1	-2	-0.8	96	57	100
COc1cccc(C2CC(=O)NC(SC)=C2C#N)c1 (stereo unspecified)	i	0.87	-9	-3.6	93	.	.
COc1cc(OC)cc(C(=O)Nc2cccc(C(C)=O)c2)c1	i	1.1	8	2.7	99	25	100
COc1ccc2c(c1OC)C(=O)OC2C/C(=N\NC(N)=O)c1ccccc1 (stereo unspecified)	i	0.9	-6	.	99	.	.
CCn1c(O)c(/C=N/N=C2CCCC2)c2ccc(C3=NNC(=O)CC3)cc21	i	0.9	2	-2.1	103	.	.
CCN1CCN(C(=O)c2ccc(CSc3ccc(C)cc3)cc2)CC1	i	0.8	-11	-1.3	178	.	.
CC(NS(=O)(=O)c1ccc(Cl)cc1)C(=O)NCc1ccco1 (stereo unspecified)	i	1.1	-8	-0.6	118	9	94
CC(C)c1ccc(C(=O)N/N=C/c2cccc(Cl)c2Cl)cc1	i	0.92	-6	-2.6	101	.	.
CCOc1cc(/C=N/NC(=O)CN2CCCCC2)ccc1OCc1ccc(Cl)cc1	i	0.98	-18	-0.1	101	-43	83
Cc1ccccc1-n1c(SCC(N)=O)nc2sc(-c3ccccc3)cc2c1=O	i	0.7	3	-2.1	93	5	137
Cc1ccc(NCCC(=O)c2ccc(Cl)c(Cl)c2)cc1	i	0.9	-7	-0.9	94	17	94
CC(C)(C)C1CCC2(CC1)Nc1cccc3cccc(c13)N2	i	0.87	-1	-2.3	93	24	76
CC(=O)c1c(C)[nH]c(C(=O)OCC(=O)C(C)(C)C)c1C	i	1.2	-5	0.1	111	15	119
Cc1cc(=O)[nH]c(N/N=C/c2c(C)nn(-c3ccccc3Cl)c2Cl)n1	i	0.86	-9	.	99	.	.
Cn1c(-c2cccs2)nc2ccccc21	i	0.87	-3	.	98	.	.
CSc1ccccc1C(=O)NC1CCCCC1	i	1	-2	-1.2	105	-41	165
CNC(=O)c1cc2cc(OC)ccc2n1CCN(C)C	i	0.83	-8	-0.2	106	.	.
CCCCC(=O)Nc1ccc(C(=O)OC2CCCCC2)cc1	i	0.83	7	-2.8	78	33	124
O=C(NC1CC2CCC(C1)N2C(=O)NCc1ccccc1)C1CC1 (stereo unspecified)	i	0.96	-14	1.3	102	-109	48
CCOc1cc(/C=C2\CCC/C(=C\c3cc(Cl)c(O)c(OCC)c3)C2=O)cc(Cl)c1O	.	.	-4	-2.5	100	-13	98
Cc1c(C(=O)N2CC(C)OC(C)C2)oc2ccccc12 (stereo unspecified)	i	1	3	-1.8	102	16	93
Cc1ccc(C)c(S(=O)(=O)N2CCN(C(C)C(=O)Nc3ccccc3-c3ccccc3)CC2)c1 (stereo unspecified)	i	1.1	-9	0.3	105	-68	81
CC(C)CNS(=O)(=O)c1ccc(CCC(=O)NCc2cccnc2)cc1	i	0.92	-10	-3.9	96	28	54
Cc1nc(-c2cc(-c3nc(-c4ccc(C(C)(C)C)cc4)no3)no2)cs1	i	1	.	.	101	.	.
COc1cc(OC)c(/C=N/NC(=O)c2ccc(Cn3nc([N+](=O)[O-])cc3C)cc2)c(OC)c1	i	1.1	.	.	104	.	.
CCOc1cccc(C(=O)Nc2cccc(C(C)=O)c2)c1	.	.	7	-1.5	60	38	88
Cc1cccc(C)c1NC(=O)CSc1nnc(C)c(=O)[nH]1	i	0.88	-2	.	109	-7	121
C=CCNC(=O)CN(c1cccc(Br)c1)S(C)(=O)=O	i	0.63	-7	-1.7	102	-3	112
Cc1ccc(C)c(N2CCN(C(c3ccncc3)c3nnnn3Cc3ccccc3)CC2)c1 (stereo unspecified)	i	0.75	-6	-0.1	72	23	94
COc1ccc(C(=O)NCCN2CCOCC2)c(OC)c1	i	0.94	2	.	101	.	.
Cc1cccn2c(=O)c3cc(C(N)=S)c(=N)n(CCCN4CCOCC4)c3nc12	i	1	-8	.	93	-35	109
NC(=O)NC(Cc1ccccc1)C(=O)O (stereo unspecified)	i	0.87	-5	-2.7	104	30	132
O=C(c1ccc(Cl)cc1)[C@@H]1[C@@H]2C(=O)N(c3ccccc3)C(=O)[C@@H]2C2c3ccccc3C=NN21 (stereo partly specified)	i	1.1	-3	-0.5	163	-20	80
Cc1cccc(NS(=O)(=O)c2ccc3[nH]c(=O)cc(C(=O)O)c3c2)c1	i	1	-10	.	98	.	.
CCOc1ccc(OCC)c(NC(=O)CN2CCN(c3ccc(C)cc3C)CC2)c1	.	.	-15	0.2	101	-23	101
CC(C)N(Cc1nccn1C)C(=O)CC1C(=O)NCCN1Cc1ccccc1C(F)(F)F (stereo unspecified)	i	1.1	-5	.	103	.	.
CCc1ccc(N2CN(CCc3ccccc3)CNC2=S)cc1	i	0.74	.	.	94	.	.
COc1ccc(-n2nc(C(=O)NCC(=O)Nc3cccc(C)n3)c3ccccc3c2=O)cc1	i	1	1	-1.2	100	38	80
COc1ccccc1NC(=O)COC(=O)c1ccc(S(=O)(=O)NCc2ccco2)cc1	i	0.95	6	-0.6	103	-17	50
COc1cc(-c2n[nH]c(=S)n2/N=C/c2cccn2C)cc(OC)c1OC	i	0.89	.	.	99	.	.
Cc1cc(C)nc(SC2CCCCC2NS(=O)(=O)c2ccccc2)n1 (stereo unspecified)	i	0.97	-5	0.0	102	.	.
O=[N+]([O-])c1cnccc1Nc1ccccc1	i	0.84	4	0.2	104	14	105
CCC(=O)Nc1nnc(SCc2cccc(F)c2)s1	i	0.95	-3	.	104	-36	93
C=CCn1c(-c2ccccc2)nc(=S)c2c1CC(C)(C)OC2	i	0.68	-5	-2.7	105	47	51
COc1cccc(/C(O)=C2/C(=O)C(=O)N(c3ccccn3)C2c2ccc(OC)c(OC)c2)c1 (stereo unspecified)	i	0.96	0	-1.9	97	4	64
CC1(C)CC(=O)C=C(NCCN2CCN(C(=O)Nc3ccc(Cl)c(Cl)c3)CC2)C1	i	0.9	11	-0.9	97	.	.
Cc1[nH]n(-c2ccccc2)c(=O)c1C=NC1CCCCC1	i	0.77	-6	.	95	-71	135
CCn1c(SCC(=O)Nc2cc(C)ccc2C)nnc1-c1cnccn1	i	0.99	-2	-1.2	100	-15	131
Fc1cnc(N2CCOCC2)nc1NCc1ccccc1	i	0.75	-8	-1.6	95	-11	158
CCOc1ccc2nc(SCc3ccc(C(=O)OC)o3)[nH]c2c1	i	0.79	-10	-2.5	98	.	.
CCN(CC)S(=O)(=O)c1cc(Br)c(C)cc1OC	i	0.97	-2	-5.5	103	-6	141
O=C(Nc1ccc2ccccc2c1)c1cn(-c2ccccc2)nc1-c1cccs1	i	0.73	0	-1.3	97	3	144
CCN(CC)c1ccc(/C=N/NC(=S)NCc2ccc(OC)cc2)cc1	i	1.1	5	0.5	95	.	.
Cc1ccc(S(=O)(=O)N2CCOCC2)cc1C(=O)Nc1nc2ccccc2[nH]1	i	1.1	9	-1.7	80	.	.

Following part:
SMILES	HSV augment	HSV augment primary fold	PKD1 kinase inh	GALR2 agonist	RGS16-Gao HTS	Insulin prom inh	Insulin prom inh cell count
CC1(C)Cc2cccc(OCC(=O)OCC(=O)Nc3cccc(S(N)(=O)=O)c3)c2O1	i	1	.	.	96	.	.
O=C(NCCCN1CCCC1)[C@H](CSCc1ccccc1)N1Cc2ccccc2C1=O	i	1	.	.	93	.	.
COc1ccc(NC(=O)c2cc([N+](=O)[O-])ccc2O)cc1	i	0.96	-9	.	105	.	.
Cc1cc(C)cc(-n2cnc3cc(C(=O)O)ccc32)c1	i	0.85	4	-0.3	117	12	87
CSc1nc(-c2ccco2)nn1C(=O)c1ccccc1	i	0.91	-3	-1.6	130	7	110
Cc1[nH]c2ccccc2c1C(=O)CSc1nc2cc(S(=O)(=O)N3CCCCC3)ccc2o1	i	0.97	0	-0.2	97	.	.
O=c1c2cc(-c3ccccc3)sc2ncn1/N=C/c1ccco1	i	0.87	-2	0.3	81	50	124
O=C(O)CN(Cc1ccco1)S(=O)(=O)c1ccccc1	i	0.98	-9	-1.1	93	.	.
O=C(Nc1ccccc1F)Nc1ccccc1N1CCCCC1	i	1.1	.	.	114	.	.
Cc1cc(C)cc(N(C(=O)c2sc(C)nc2C)C(C(=O)NC(C)(C)C)c2ccncc2)c1 (stereo unspecified)	i	1.1	-3	.	102	.	.
O=C(Nc1ccc2nn(-c3ccc(F)cc3)nc2c1)c1cccnc1	i	1.1	3	.	105	.	.
COC(=O)c1ccc(OCC(=O)Nc2ccsc2C(=O)OC)cc1	i	0.87	1	.	99	.	.
COc1cccc(N=C2C(=O)N3CCCc4cccc2c43)c1	i	0.99	-15	-0.3	101	21	129
O=c1cnnc(SCCc2ccccc2)[nH]1	i	0.93	-3	-1.9	102	0	83
O=C(O)c1cccc(NCc2ccncc2)c1	.	.	-3	-0.5	79	6	45

For reference, 14 of the compounds above.
SMILES	HSV augment	HSV augment primary fold	PKD1 kinase inh	GALR2 agonist	RGS16-Gao HTS	Insulin prom inh	Insulin prom inh cell count
O=C(NCCCN1CCCC1)[C@H](CSCc1ccccc1)N1Cc2ccccc2C1=O	i	1	.	.	93	.	.
COc1ccc(NC(=O)c2cc([N+](=O)[O-])ccc2O)cc1	i	0.96	-9	.	105	.	.
Cc1cc(C)cc(-n2cnc3cc(C(=O)O)ccc32)c1	i	0.85	4	-0.3	117	12	87
CSc1nc(-c2ccco2)nn1C(=O)c1ccccc1	i	0.91	-3	-1.6	130	7	110
Cc1[nH]c2ccccc2c1C(=O)CSc1nc2cc(S(=O)(=O)N3CCCCC3)ccc2o1	i	0.97	0	-0.2	97	.	.
O=c1c2cc(-c3ccccc3)sc2ncn1/N=C/c1ccco1	i	0.87	-2	0.3	81	50	124
O=C(O)CN(Cc1ccco1)S(=O)(=O)c1ccccc1	i	0.98	-9	-1.1	93	.	.
O=C(Nc1ccccc1F)Nc1ccccc1N1CCCCC1	i	1.1	.	.	114	.	.
Cc1cc(C)cc(N(C(=O)c2sc(C)nc2C)C(C(=O)NC(C)(C)C)c2ccncc2)c1 (stereo unspecified)	i	1.1	-3	.	102	.	.
O=C(Nc1ccc2nn(-c3ccc(F)cc3)nc2c1)c1cccnc1	i	1.1	3	.	105	.	.
COC(=O)c1ccc(OCC(=O)Nc2ccsc2C(=O)OC)cc1	i	0.87	1	.	99	.	.
COc1cccc(N=C2C(=O)N3CCCc4cccc2c43)c1	i	0.99	-15	-0.3	101	21	129
O=c1cnnc(SCCc2ccccc2)[nH]1	i	0.93	-3	-1.9	102	0	83
O=C(O)c1cccc(NCc2ccncc2)c1	.	.	-3	-0.5	79	6	45

Carrying on:
SMILES	HSV augment	HSV augment primary fold	PKD1 kinase inh	GALR2 agonist	RGS16-Gao HTS	Insulin prom inh	Insulin prom inh cell count
Cc1nn(-c2ccccc2)c(C)c1NC(=O)COc1ccc2ccccc2c1	i	1.3	-4	-2.3	101	59	64
CCOc1ccc(N(CC(=O)NCC2CCCO2)C(=O)CCC(=O)Nc2nccs2)cc1 (stereo unspecified)	i	1.1	-11	.	109	.	.
CCOC(=O)N1CCN(c2c(N3CCOCC3)c(=O)c2=O)CC1	i	0.96	-8	0.1	100	.	.
FC(F)(F)c1ccncc1-c1nnc(C2CCCCC2)o1	i	1	.	.	97	.	.
C=CCc1c(C)nc(-c2ccccc2)nc1N/N=C(\C)c1ccccc1	i	0.98	-1	-0.7	104	.	.
Cc1csc(=NC(=O)c2ccccc2)n1Cc1ccco1	i	1	-1	-2.7	104	-118	40
O=C(Nc1cccc(F)c1)C1C2C=CC3(CN(CCCN4CCOCC4)C(=O)C13)O2 (stereo unspecified)	i	1	8	-1.8	102	.	.
O=C(C[n+]1cccc2ccccc21)c1ccccc1	i	1.1	-5	-1.4	104	-204	66

This is a random part of the collection. About 1.2% of those tested had a hit in this group.
